Vaccinia mCherry: inhibitors of vaccinia virus infection (mCherry reporter signal). Vaccinia virus mCherry reporter infection, fluorescence; about a quarter of the inactives have no number. Potency, µM (highest dose often 36.5 µM), for inactives: at the top dose activity change, negative = inhibition, hits mostly inhibitors. 0.63% of 310,000 active; active = well fitted inhibition curve with a large enough effect; inconclusive = small, poorly fitted or top-dose-only effect; inactive = no such curve, though single readings can be large or run the other way; tested in A549 cells; further: nearly all actives have a fitted effect of over 35% in size; inactives centre near -10
VACV Venus inh: vaccinia inhibition (Venus reporter); Potency, µM (doses to about 36.5 µM), inactives show top-dose activity change, negative = inhibition, actives largely listed as inhibitors; Vaccinia virus Venus reporter expression, fluorescence; 0.46% of 330,000 active; AID 720580; active means well fitted inhibition curve with a large enough effect; inconclusive means small, poorly fitted or top-dose-only effect; inactive means no such curve, though single readings can be large or run the other way; tested in A549 cells; further: nearly all actives have a fitted effect of over 30% in size; inactives centre near -10
The depositor's hits bear a star; i = inactive; ? = inconclusive; . = not tested or not shown; & = joins results of further samples. On the % scale 0 is the no-effect control and ±100 the full control effect; potency means the concentration at half of the fitted maximal effect.

No.	SMILES	Vaccinia mCherry	VACV Venus inh
1	O=C(c1ccc([N+](=O)[O-])cc1)N(Cc1ccccc1)c1ccccn1	-7%	0%
2	S=C(Nc1ccc(Cl)cc1Cl)N1CCOCC1	i	-10%
3	COc1ccc(Nc2nc(-c3ccc(C)cc3)nc3ccccc23)c(OC)c1	-15%	-15%
4	O=C(CC1CCCC1)N1CCCC(Nc2cccc(F)c2)C1 (stereo not drawn)	?	-1%
5	COC(=O)c1ccc(CNC(=O)CNc2cc(C(F)(F)F)ccc2N2CCOCC2)cc1	.	-11%
6	CCN(CC)S(=O)(=O)c1cc(C)c(C)cc1OCC(=O)NC1CCCC1	?	-20%
7	CC(=O)NNC(=S)NC(=O)c1ccc(C)cc1	-2%	8%
8	Cc1cccc(Cn2c(CNS(=O)(=O)c3ccc4c(c3)CCCC4)nc3cccnc32)c1	-9%	-10%
9	N[C@@H](CCS(=O)O)C(=O)O	-8%&-15%	-7%&-1%
10	Cc1cc(C)cc(NC(=O)CC23CC4CC(C2)CC(n2nnc(C)n2)(C4)C3)c1	-21%	0%
11	CCCNC(=O)COC(=O)c1ccccc1OCC(=O)Nc1ccc(Br)cc1	-8%	-15%
12	Cc1cccc(C)c1NC(=O)C1(C)CN(S(C)(=O)=O)CC(=O)N1CCc1ccccc1F (stereo not drawn)	-24%	-14%
13	O=C(c1ccccc1Cl)N1CCN(C(=O)C2CCCO2)CC1 (stereo not drawn)	i	-13%
14	CCN(CC(=O)Nc1cc(Cl)ccc1C)C(=O)CSCc1ccccc1	-22%	-4%
15	Cc1ccccc1-c1csc(N)n1	-5%	-2%
16	O=C(CNc1cccc(S(=O)(=O)N2CCCCC2)c1)Nc1ccc(C(F)(F)F)cc1	-23%	?
17	CSc1ncccc1C(=O)NCc1ccc(C)cc1	?	10µM*
18	COc1cccc(CNC(=O)C2CCN(S(=O)(=O)c3cnc[nH]3)CC2)c1	i	1%
19	CC1CCN(c2ccc3nnc(CCC(=O)N4CCN(c5ccc(F)cc5)CC4)n3n2)CC1	?	?
20	CCOC(=O)Cn1nc2oc(=O)c(CCN3CCN(c4ccccc4OC)CC3)c(C)c2c1C	-2%	6%

No.	SMILES	Vaccinia mCherry	VACV Venus inh
21	CC12CCC(=O)CC1CCC1C2C(=O)CC2(C)C1CCC2(C)O (stereo not drawn)	i	-6%
22	CC(C)n1cc(CN2CCC(Oc3ccc(C(=O)N4CCCCC4)cc3)CC2)cn1	-3%	-16%
23	CCCCc1ccc(-c2csc(/C(C#N)=C/c3ccc(C)o3)n2)cc1	-5%	11%
24	Cc1ccc(C(=O)N(Cc2ccccc2)C(C)(C)C)cc1C	i	2%
25	Cc1ccccc1C(=O)NC[C@@H]1CCCN2CCCC[C@H]12	-6%	-7%
26	COC(=O)c1ccc(C(=O)OC)c(NC(=O)C(C)C)c1	-4%	-15%
27	CCC1C(=O)NCCN1Cc1ccc2c(c1)CN(Cc1ccc(F)c(OC)c1)CCO2 (stereo not drawn)	-8%	5%
28	COc1ccc(S(=O)(=O)N(C)c2ccc(C(=O)N3CCCC3)cc2)cc1OC	-16%	-9%
29	C/C=C/c1cccc(-c2nc(C(=O)N3CCOCC3)cc3c2[C@@H](CCO)N(C(=O)NC(C)C)C3)c1	i	-5%
30	CCOC(=O)c1c(-c2ccc(Br)cc2)csc1NC(=O)c1ccc(F)cc1	-14%	-2%
31	O=c1[nH]c2ccc(Br)cc2c(=O)o1	i	-15%
32	COc1cccc(-c2nc(NCc3ccco3)c3ccccc3n2)c1O	-30%	?
33	CSCCC1COC(c2cccs2)=N1 (stereo not drawn)	i	-16%
34	COc1ccc2[nH]c3c(=O)n(Cc4ccco4)cnc3c2c1	-5%	-10%
35	COc1cccc(C(=O)CSc2nnc(-c3cc(OC)c(OC)c(OC)c3)o2)c1	-7%	2%
36	CC1CC(C)CN(S(=O)(=O)c2ccc(NC(=O)CN3CCCCCC3)cc2)C1 (stereo not drawn)	-23%	-23%
37	O=S(=O)(c1ccccc1)N1CCn2c(nc3ccccc32)C1	20%	2%
38	CC(C)Oc1ccc(C2CNC(=O)C2)cc1 (stereo not drawn)	i	-19%
39	COc1cc(-c2nc(C(N)=O)c3c(n2)n(-c2cccc(C)c2)c(=O)n3C)cc(OC)c1OC	-1%	-3%
40	CCn1nccc1C(=O)Nc1nc2ccccc2n1CCN1CCCCC1	-20%	-10%

No.	SMILES	Vaccinia mCherry	VACV Venus inh
41	CCN1C(=O)c2ccccc2S(=O)c2ccc(C(=O)NCc3ccc(OC)cc3)cc21 (stereo not drawn)	-14%	-5%
42	c1ccc(N2OCC3Cn4c(nc5ccccc54)C32)cc1 (stereo not drawn)	i	-4%
43	CC(=O)c1cccc(NC(=O)C2CCN(S(C)(=O)=O)CC2)c1	-1%	-7%
44	COCc1ccc(CN2CCCC(CCC(=O)NCc3cccc(OC)c3)C2)o1 (stereo not drawn)	-22%	-16%
45	COc1ccccc1CNC(=O)CCCCn1c(=O)c2ccccc2n(Cc2ccccc2F)c1=O	-13%	?
46	Nc1c(C(=O)Nc2ccc3c(c2)OCCO3)nnn1Cc1ccc(Cl)cc1	-21%	-19%
47	Cn1cc(CN2CCc3c([nH]c4ccccc34)C2C2CCCCC2)cn1 (stereo not drawn)	-14%	-6%
48	CCCCCCNC(=O)O[C@]12C[C@@H](C(=O)OC)[C@@H](C(=O)OC)C[C@@]1(O)CN(S(=O)(=O)c1ccc(C)cc1)C2	i	-20%
49	C=CCn1c(SCC#N)nc2ccc(Cl)cc2c1=O	17%	-18%
50	Cc1noc(NS(=O)(=O)c2ccc(NS(=O)(=O)c3ccc(C(C)(C)C)cc3)cc2)c1C	i	-3%
51	CCC(=O)c1cc(F)c(N2CCN(CC)CC2)cc1C	-12%	-5%
52	CCOC(=O)c1sc2nc(C)nc(N3CCCCC3C)c2c1C (stereo not drawn)	-14%	-3%
53	Cc1nnc2n(Cc3ccccc3)c(=O)c3c4c(sc3n12)COC(C)(C)C4	.	-26%
54	O=C(CSc1nnc2scc(-c3ccccc3)n12)Nc1ccc2c(c1)OCCO2	-5%	-20%
55	COc1cccc(CN2C(=O)c3cccc(N)c3C2=O)c1	-1%	-14%
56	CCCCC(=O)Nc1ccc(Br)cn1	-3%	-2%
57	Nn1c(SCC(=O)NNC(=O)c2ccccc2)nnc1-c1ccccc1F	-24%	7%
58	O=C(/C=C/c1ccc2ccccc2n1)N1CCN(c2ccccc2)CC1	-7%	-15%
59	CCN1CCN(S(=O)(=O)c2c(C)[nH]c(C)c2C(=O)N2CCCCC2)CC1	-14%	-4%
60	COc1ccc(-c2nc3ccccc3o2)cc1NC(=O)c1cc([N+](=O)[O-])ccc1N1CCOCC1	0%	3%

Part of the list above, with two lines to a compound.
The line under a structure holds: Vaccinia mCherry | VACV Venus inh
47	Cn1cc(CN2CCc3c([nH]c4ccccc34)C2C2CCCCC2)cn1 (stereo not drawn)
 : -14% | -6%
48	CCCCCCNC(=O)O[C@]12C[C@@H](C(=O)OC)[C@@H](C(=O)OC)C[C@@]1(O)CN(S(=O)(=O)c1ccc(C)cc1)C2
 : i | -20%

Following part
No.	SMILES	Vaccinia mCherry	VACV Venus inh
61	CC(C)(C)c1ccc(-c2cnco2)cc1	i	-2%
62	CCOCCCNC(=S)NCCNc1nc2ccc(C)cc2cc1C#N	-11%	-26%
63	COc1ccc(NC2CCCN(C(=O)CCc3scnc3C)C2)cc1 (stereo not drawn)	i	-12%
64	O=C(COC(=O)c1ccc([N+](=O)[O-])o1)NC1CCCC1	-4%	4%
65	CCOC(=O)c1ccc(NC(=O)CSc2nnc(COc3ccccc3)n2C)cc1	.	-25%
66	COc1ccc(C(=O)N2CCC(C(=O)Nc3ccccc3Cl)CC2)cc1	-7%	8%
67	CCOC(=O)CSc1nc2cc3c(cc2cc1C#N)OCO3	i	-23%
68	Cc1ccc(C)c(NS(=O)(=O)c2ccc3c(c2)n(C)c(=O)n3C)c1	-12%	-13%
69	O=C(CCCn1c(=O)c2cccn2c2cccnc21)Nc1ccccc1C(F)(F)F	i	-15%
70	Clc1ccccc1OCCn1cnc2ccccc21	-27%	-18%
71	CCOC(=O)N1CCc2c(sc3c2C(=O)NC(c2cc(OC)c(OC)c(OC)c2)N3)C1 (stereo not drawn)	-30%	-25%
72	CC(=O)c1cccc(NC(=O)CCC(=O)c2ccc(F)cc2)c1	i	-17%
73	COc1cc2c(cc1OC)N1C(=O)CC(OCC(=O)O)C3C4CC5(CCN5C(=O)C4=O)C2C31 (stereo not drawn)	-4%	-3%
74	COc1ccc(C2C3=C(CCCC3=O)Nc3c(-c4ccccc4)c(C)nn32)cc1 (stereo not drawn)	-1%	-8%
75	O=S(=O)(Nc1ccc(-c2ccc3nncn3n2)cc1)c1ccc(Cl)s1	-2%	-17%
76	COC(=O)[C@@H]1[C@@H](C(=O)OC)C2(c3ccccc3-c3ccccc32)N(c2ccc(Cl)cc2)N1C#N	?	?
77	Cc1ccc2c(c1)N(C(C)C(=O)N1CCC3(CC1)OCCO3)C(=O)CO2 (stereo not drawn)	-13%	0%
78	Cc1cccc(NC(=O)CSc2nc(=O)n(Cc3ccccn3)c3c2CCC3)c1C	i	-9%
79	CC(C)CN1CCN(Cc2cnc(N3CCOCC3)s2)CC1CCO (stereo not drawn)	-7%	-5%
80	COc1cc(NC(=S)Nc2ccc3c(c2)OCCO3)cc(OC)c1OC	-14%	-12%

No.	SMILES	Vaccinia mCherry	VACV Venus inh
81	Cn1cc(-c2ccc3c(c2)OCO3)c2ccccc21	i	-5%
82	Fc1ccc2nncc(SCc3ccccc3Cl)c2c1	-10%	-2%
83	CCOC(=O)C1(CCOc2ccccc2)CCN(Cc2ccc(C)o2)CC1	-6%	1%
84	COCCNCCOc1ccc(C)cc1[N+](=O)[O-]	-5%	-9%
85	O=C(COC(=O)Cn1[nH]c(=O)c2ccccc2c1=O)Nc1ccc2c(c1)OCO2	2%	-4%
86	Cc1nnc2ccc(-c3ccc(NS(=O)(=O)c4ccccc4F)cc3)nn12	-18%	-22%
87	COc1ccc(C)c2sc(N(CCN(C)C)C(=O)c3cccc(N4C(=O)CCC4=O)c3)nc12	-6%	-8%
88	Cc1ccc(N2C(=O)CS/C2=C(\C(Cl)=C(Cl)Cl)[N+](=O)[O-])cc1	i	7%
89	O=C(Nc1ccc(Br)cc1F)c1ncoc1-c1ccco1	i	1%
90	CN1CCCC1=Nc1ccccc1	i	7%
91	Cc1csc(NC(=O)C2CC(=O)N(Cc3ccco3)C2)n1 (stereo not drawn)	-21%	-7%
92	O=C(NCCS(=O)(=O)NCC1CCCO1)c1ccccc1 (stereo not drawn)	-5%	-12%
93	O=[N+]([O-])c1ccc(Oc2ccc(-c3nnco3)cc2)c(Cl)c1	?	-10%
94	CC(C)(CNC(=O)c1cccc(NS(=O)(=O)c2ccc(Br)cc2)c1)N1CCOCC1	-9%	-11%
95	COC(=O)c1ccccc1S(=O)(=O)N1CCC(C(=O)N(C)CCOc2ccccc2)CC1	i	-20%
96	O=C(CCc1nnc2n(Cc3ccc(Cl)cc3)c(=O)c3ccccc3n12)N1CCN(c2ccccn2)CC1	i	-1%
97	CC(=O)OC(C(=O)NC1CCCCC1)c1ccccc1F (stereo not drawn)	i	-21%
98	C[C@H](CO)N1C[C@H](C)[C@@H](CN(C)S(=O)(=O)c2ccccc2F)Oc2ncc(C#Cc3cccnc3)cc2C1=O	?	-17%
99	O=C1CN(C(=O)c2cc3ccccc3oc2=O)C(c2ccc(F)cc2)c2cc(Br)ccc2N1 (stereo not drawn)	-13%	-13%
100	NC(=O)C1CCN(C(=O)c2cc3c(s2)CCCCC3)CC1	-12%	-10%

Entries 11 to 16, reprinted for reference:
No.	SMILES	Vaccinia mCherry	VACV Venus inh
11	CCCNC(=O)COC(=O)c1ccccc1OCC(=O)Nc1ccc(Br)cc1	-8%	-15%
12	Cc1cccc(C)c1NC(=O)C1(C)CN(S(C)(=O)=O)CC(=O)N1CCc1ccccc1F (stereo not drawn)	-24%	-14%
13	O=C(c1ccccc1Cl)N1CCN(C(=O)C2CCCO2)CC1 (stereo not drawn)	i	-13%
14	CCN(CC(=O)Nc1cc(Cl)ccc1C)C(=O)CSCc1ccccc1	-22%	-4%
15	Cc1ccccc1-c1csc(N)n1	-5%	-2%
16	O=C(CNc1cccc(S(=O)(=O)N2CCCCC2)c1)Nc1ccc(C(F)(F)F)cc1	-23%	?

(further entries)
No.	SMILES	Vaccinia mCherry	VACV Venus inh
101	CCC(=O)N1c2ccccc2CC1C(=O)NCCN1CCN(c2cc(Cl)ccc2C)CC1 (stereo not drawn)	-15%	-8%
102	CC(C)c1ccccc1NC(=O)Cn1c(/C=C/c2ccccc2)nc2ccccc21	i	-11%
103	Cc1cc(C(=O)CS(=O)(=O)c2ccc(F)cc2)cc(C)c1O	-13%	-10%
104	OC(CN1C=CCc2ccccc21)c1ccc(Cl)cc1Cl (stereo not drawn)	16%	-15%
105	Oc1c(C(c2ccc(Cl)cc2)N2CCCC2)cc(Cl)c2cccnc12 (stereo not drawn)	13µM*	?
106	COc1ccc(/C=C2\Oc3cc(OCC(=O)N4CCC[C@H]4C(=O)O)ccc3C2=O)c(OC)c1OC	i	-8%
107	CCn1cc(CN2CCC(n3nccc3NC(=O)CCOc3ccccc3)CC2)cn1	-11%	1%
108	CCCCNC(=S)N/N=C/c1ccc(C#N)cc1	-2%	-10%
109	CCc1ccc(NC(=O)CCc2nc3ccccc3[nH]2)cc1	i	-3%
110	Cn1ncc([N+](=O)[O-])c1C(=O)N/N=C/c1c[nH]c2ccccc12	-18%	-28%
111	Cc1noc(C)c1C(=O)Nc1ccc(-n2ccc(C(F)(F)F)n2)cc1	-30%	-23%
